Arbovirus inh – antivirals against arbovirus infection. arbovirus infection cell-based antiviral screen. 0.37% of 200,000 active. inhibition, % at 10 µM;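 active = inhibition from about 30%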;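 also: bluetongue infection of BSR cells; cell survival read as ATP light after 72 h; 0% = infected wells without compound and 100% = uninfected wells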
Mtb betalactam – beta-lactam sensitization of Mtb H37Rv; M. tuberculosis H37Rv growth with meropenem, percent inhibition; hits of this screen are not shown here; inhibition, % at 25 µM; 0.27% of 330,000 active;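 active = about 74% or more and at least 40 points above the plate without the antibiotic, then above 30% in a dose series; inconclusive = first-round hits that could not be retested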;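 also: growth measured after seven days incubation then overnight dye step; 0% = bacteria only wells and 100% = bacteria with antibiotic; twin plates without the antibiotic show which effects depend on it; some results filed as inactive read as strong as hits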
YopH PTP inh – YopH (Yersinia) phosphatase inhibition. fluorescence Ex485/Em525. inhibition, %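 (about 10 µM by stock and volumes)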. 0.16% of 140,000 active;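 active = inhibition of 50% or more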;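 also: controls were vehicle for no effect and minimum signal wells for full effect; inactives centre near -20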
Mtb H37Rv – M. tuberculosis H37Rv growth inhibitors, H37Rv strain (AID 1626); M. tuberculosis H37Rv growth inhibition; higher % means a stronger effect; inhibition, % at 10 µM; hits with a dose series show IC50 in µM; 0.95% of 220,000 active;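 active = confirmed in a dose series; inconclusive = inhibition above 80% but not taken into the dose series; inactive = below 80% or under 30% at every dose of the series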;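 also: bacteria incubated seven days before Alamar blue readout; 0% = bacteria only wells and 100% = bacteria with antibiotic wells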
RecA intein inh – blocks M. tuberculosis RecA intein splicing; AID 2221; inhibition, %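 (about 9 µM by stock and volumes)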; 0.75% of 290,000 active; cell-free RecA intein splicing, fluorescence; in the data active = inhibition above about 30%; inconclusive = no clear call, values can overlap the other calls;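 also: 0% = vehicle wells and 100% = reference inhibitor control wells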
Target sequence (P9WHJ3 whole entry, looked up): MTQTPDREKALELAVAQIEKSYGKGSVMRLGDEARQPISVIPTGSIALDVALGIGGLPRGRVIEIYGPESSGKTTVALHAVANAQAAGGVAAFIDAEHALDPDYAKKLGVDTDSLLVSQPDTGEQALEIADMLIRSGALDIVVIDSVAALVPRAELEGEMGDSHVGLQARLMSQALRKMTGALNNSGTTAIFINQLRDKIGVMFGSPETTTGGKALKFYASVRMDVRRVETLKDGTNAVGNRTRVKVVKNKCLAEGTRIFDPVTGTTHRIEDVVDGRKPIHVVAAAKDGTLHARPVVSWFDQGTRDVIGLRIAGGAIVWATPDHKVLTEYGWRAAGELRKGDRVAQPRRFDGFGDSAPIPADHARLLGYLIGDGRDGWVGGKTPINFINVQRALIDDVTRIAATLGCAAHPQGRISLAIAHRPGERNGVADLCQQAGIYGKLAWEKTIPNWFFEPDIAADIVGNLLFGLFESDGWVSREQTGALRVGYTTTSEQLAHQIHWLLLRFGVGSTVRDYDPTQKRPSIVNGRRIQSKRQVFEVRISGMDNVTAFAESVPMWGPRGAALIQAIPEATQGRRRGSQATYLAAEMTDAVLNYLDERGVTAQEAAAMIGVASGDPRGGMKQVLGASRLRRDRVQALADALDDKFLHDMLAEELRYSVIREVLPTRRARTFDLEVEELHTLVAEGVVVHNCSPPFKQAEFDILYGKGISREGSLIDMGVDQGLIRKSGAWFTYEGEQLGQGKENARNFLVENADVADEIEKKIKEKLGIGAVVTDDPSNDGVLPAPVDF
Arbovirus inh repeat – second read-out of Arbovirus inh, no call of its own (marks repeat the call); inhibition, %; measured here: 10K subset replicate screen; many hits read low in the repeat;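 first of two repeat runs on a subset; 0% = infected and 100% = uninfected wells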
The depositor's hits bear a star; u = inconclusive; x = no result given. An excerpt. The share of hits here may be higher or lower than overall.

SMILES	Arbovirus inh	Mtb betalactam	YopH PTP inh	Mtb H37Rv	RecA intein inh	others
Cc1ccc2c(C(=O)CSc3ccccc3)c(C)[nH]c2c1	-5	1	-35	-2%	2.4
COCCN(C(=S)Nc1ccc(C)cc1)C(C)c1ccco1 (centres undefined)	x	-1	x	-6%	-1.3
O=C(Cc1ccccc1[N+](=O)[O-])NC1CC2CCC1C2 (centres undefined)	x	-7	x	x	-1.3
S=c1[nH]c2ccccc2n2cccc12	x	0	x	-6%	0.6
CC1(C)CCc2cc(-c3ccn(S(=O)(=O)c4ccccc4Cl)n3)ccc2O1	x	-2	x	2%	-3.4
Cc1cc(C(=O)NC2CCCCC2)on1	x	1	x	-10%	-1.5
CN(C)CCCNC(=O)C(=O)Nc1ccc2c(c1)N(S(=O)(=O)c1cccs1)CCC2	x	2	x	x	0.9
COc1ccc(C(c2sc3nc(C)nn3c2O)N2CCN(CCO)CC2)cc1OC (centres undefined)	1	-6	-14	5%	11
COc1ccc(C2=NOC(C)(c3sc(-c4ccc(Cl)cc4)nc3C)C2)cc1 (centres undefined)	x	25	x	12%	2.3
Cc1ccc(NC(=O)C2CCCN(S(=O)(=O)c3cnc[nH]3)C2)cc1C (centres undefined)	-8	-2	-27	-9%	1.1
c1ccc2c(c1)CCN(C1=Nc3cccc4cccc1c34)C2	-1	x	x	8%	x
Oc1ccc(/C=N\Nc2nncc(-c3ccccc3)n2)cc1	x	58	x	6%	-13
O=C(Nc1nnc(-c2ccccc2)s1)c1ccccc1F	x	5	x	x	-2.4
Cc1ccc(NC(=O)CSc2nnc(C3CCCCC3)n2N)cc1F	7	-7	-45	8%	x
CCOc1ccc2nc(NC(=O)Cc3cccs3)sc2c1	-5	83	12	14%	0.6
COC(=O)CN1C(=O)Nc2ccc(Cl)cc2C1c1ccccc1 (centres undefined)	x	2	x	x	5.3
CCCN(CCC)CCCNc1ccc2nnc(-c3ccc(F)cc3)n2n1	-25	-8	-20	6%	-0.2
COC1=CCC2([N+](=O)[O-])CN(C)CC1([N+](=O)[O-])C2 (centres undefined)	4	-9	-22	-12%	-1.0
N#Cc1c(Cl)nc(-c2ccncc2)nc1-c1ccccc1	x	4	x	x	-1.8
CCOC(=O)CNC(=O)C(CO)NC(=O)OCc1ccccc1 (centres undefined)	1	-5	-38	5%	-1.0
NC(=O)CC(NC(=O)c1ccc(Br)cc1)c1ccc(NCc2ccc(F)cc2)c([N+](=O)[O-])c1 (centres undefined)	x	-13	x	34%	3.4
Cc1cc(OCC(=O)NC(Cc2ccc(Cl)cc2)C(=O)O)c2c(C)cc(=O)oc2c1 (centres undefined)	x	-5	x	x	-1.1
Cc1c(CN2CCC(CO)(CC3CCCCO3)CC2)cnn1C (centres undefined)	-1	3	x	-2%	-0.3
Cc1ccc(C)c(S(=O)(=O)N2CCN(CC(=O)Nc3ccc4c(c3)OCCO4)CC2)c1	-17	-9	6	0%	0.1
CCOC(=O)c1sc(Nc2cccc(Cl)c2)nc1C	x	92	x	4%	-1.2
COc1ccc(CN2CCc3cc(OC)c(OC)cc3C2)cc1O	-8	-9	x	-13%	-0.6
CCNc1nc(NC(C)C)nc(N(C#N)Cc2ccccc2)n1	9	-1	-19	8%	-2.3
O=C(NCC1CCCN1S(=O)(=O)c1cccs1)c1c(F)cccc1F (centres undefined)	x	-6	x	x	1.0
CCOc1ccc(CCNC(=O)c2cc(C)nn2-c2ccccc2)cc1	x	-9	x	-3%	3.0
C/C(=N\OC(=O)c1cccc(Cl)c1)c1sc(C)nc1C	1	54	17	6%	-0.5
Cc1c(C(c2ccc(C(=O)O)cc2)c2c(C)n(C)n(-c3ccccc3)c2=O)c(=O)n(-c2ccccc2)n1C	x	0	x	x	-2.2
CC1CCN(C(=O)c2cc3nc(-c4ccccc4)cc(-c4ccccc4)n3n2)CC1	-17	95	-8	28%	-2.4
CCN(CC)S(=O)(=O)c1ccc2c(c1)nc(CCC(=O)Nc1ccccc1Cc1ccccc1)n2CC	-10	8	-13	-1%	-6.8
CC(C)(C)c1ccc(NC(=O)CSc2n[nH]c(=O)n2-c2cccnc2)cc1	x	0	x	x	-2.3
CCOC(=O)c1ccc(NC(=O)c2cc(S(=O)(=O)N3CCOCC3)cn2C)cc1	x	-3	x	x	-1.9
COC(=O)C1=C(N)Oc2cc(N(C)C)ccc2C1c1ccccc1OC (centres undefined)	-8	-4	4	-19%	-21
O=C(/C=C/c1ccc(Br)o1)Nc1nnc(C2CC2)s1	x	-3	x	-12%	1.4
Cc1ccc(OCC(=O)Nc2nnn(C)n2)c(C)c1	1	3	-46	-2%	-1.0
N#C/C(=C1\C(=O)Nc2c(Cl)cc(Cl)cc21)c1nnc2n1CCCCC2	-2	-2	5	-1%	x
Cc1ccccc1CNC(=O)C(=O)NCCC1CCCCN1S(=O)(=O)c1cccs1 (centres undefined)	x	-11	x	x	-7.9
O=C(CCl)Nc1ccccc1C(=O)c1ccccc1	11	96	x	47%	15
NS(=O)(=O)c1cccc(NC(=O)CSc2nnnn2-c2ccccc2)c1	x	-4	x	-6%	-0.5
Cc1ccc(S(=O)(=O)N2CCN(C(=O)c3ccc(-n4cncn4)c([N+](=O)[O-])c3)CC2)cc1	x	-3	x	x	-2.1
O=C(Nc1nc2ccccc2n1CCN1CCOCC1)c1ccc(COc2ccccc2Br)o1	-15	1	x	58%	7.1
CCCCOP(=O)(c1ccc(N(C)C)cc1)C(O)c1ccc(OC)c(OC)c1 (centres undefined)	x	-2	x	0%	1.9
Cc1cc(OCCCCn2ccnc2)cc(C)c1Cl	-21	99	x	51%	1.8
O=C(CNC(=O)c1ccccc1F)NC1CC1	12	-10	2	-13%	-5.3	Arbovirus inh repeat=0
Cc1ccc(NS(=O)(=O)c2ccc3c(c2)NC(=O)CCS3)c(C)c1	x	-3	x	x	5.0
COc1ccc(/C=C2/SC(=O)N(CCC(=O)Nc3ccc(C)cc3)C2=O)cc1OC	-11	4	-33	0%	-4.3
CCOc1cc(/C=N/NC(=O)CN2CCCCC2)ccc1OCc1cccc(Cl)c1	6	6	-6	11%	4.0

The last 2 records of the part above lead into the next:
SMILES	Arbovirus inh	Mtb betalactam	YopH PTP inh	Mtb H37Rv	RecA intein inh	others
COc1ccc(/C=C2/SC(=O)N(CCC(=O)Nc3ccc(C)cc3)C2=O)cc1OC	-11	4	-33	0%	-4.3
CCOc1cc(/C=N/NC(=O)CN2CCCCC2)ccc1OCc1cccc(Cl)c1	6	6	-6	11%	4.0
CCOC(=O)CCn1cnc2ccc([N+](=O)[O-])cc2c1=O	-1	-6	x	-10%	0.0
Cc1ccc(C(=O)N/C(=C\c2ccc(C)o2)C(=O)O)cc1	x	-5	x	-7%	-1.3
COc1cccc(C2CC(c3cccc(C)c3)n3ncnc3N2)c1 (centres undefined)	0	1	-24	4%	0.1	Arbovirus inh repeat=7
O=C(Nc1ccccc1)OCCNC(=O)c1cccc(Cl)c1	0	2	-12	-5%	-1.3
CCOc1cc(/C=N/n2c(C)nnc2C)ccc1O	x	-9	x	-2%	-2.7
O=C(c1ccco1)N1CCN(C(=O)c2cccc3c2C(=O)N(C2CCCCC2)C3)CC1	6	-7	-28	-2%	0.9
CSc1nc(-c2ccco2)nn1S(=O)(=O)c1ccc(C)cc1	1	3	-4	-2%	2.2
CC1=CC2=NC(=O)/C(=C\c3cccn3CCOc3ccccc3C)C(=N)N2O1	-17	1	x	-2%	7.0
CCOc1ccc(-c2nnc(-c3cccs3)o2)cc1OCC	10	x	-33	1%	-0.3
CCOC(=O)N1CC=C2C(C#N)=C(N)C(C#N)(C#N)[C@H](c3ccsc3)[C@H]2C1	-1	-2	-28	-9%	8.9

Of the compounds above, these have bromine:
SMILES	Arbovirus inh	Mtb betalactam	YopH PTP inh	Mtb H37Rv	RecA intein inh	others
NC(=O)CC(NC(=O)c1ccc(Br)cc1)c1ccc(NCc2ccc(F)cc2)c([N+](=O)[O-])c1 (centres undefined)	x	-13	x	34%	3.4
O=C(/C=C/c1ccc(Br)o1)Nc1nnc(C2CC2)s1	x	-3	x	-12%	1.4
O=C(Nc1nc2ccccc2n1CCN1CCOCC1)c1ccc(COc2ccccc2Br)o1	-15	1	x	58%	7.1

New compounds follow:
SMILES	Arbovirus inh	Mtb betalactam	YopH PTP inh	Mtb H37Rv	RecA intein inh	others
CSc1nsc(SCC(=O)Nc2ccccc2C(=O)O)n1	x	10	x	x	5.6
CCC1(c2ccc(F)cc2)NC(=O)N(CC(=O)Nc2ccc(S(N)(=O)=O)cc2)C1=O (centres undefined)	3	-1	x	3%	0.1
Cc1cc(NC(=O)COC(=O)[C@@H](NS(=O)(=O)c2ccccc2)C(C)C)no1	22	7	x	-8%	-0.4
COc1ccc(C2CCCN2C(=S)Nc2ccc(C)cc2Cl)cc1OC (centres undefined)	4	-1	x	7%	-3.5
Cn1c(=O)c2c(nc(N3CCCCC3)n2CCSc2nc3ccccc3s2)n(C)c1=O	-3	-3	-40	-4%	1.9
C=CCNC(=O)c1cc(-c2ccncc2)nc2c(C)cc(C)cc12	x	4	x	x	-1.4
CC(C)c1ccc(NC(=O)[C@H](NC(=O)[C@@H]2Cc3ccccc3CN2)c2ccccc2)cc1	x	89	x	x	3.5
O=c1[nH]cnc2[nH]ncc12	3	-7	-29	-9%	-2.3
Cc1nn(CCCC(=O)Nc2cc(Oc3ccc(F)cc3)cc([N+](=O)[O-])c2)c(C)c1[N+](=O)[O-]	-21	100	-24	u	-0.1
CCNC(=O)CSc1nnc(-c2ccccc2)n1-c1ccc(OCC)cc1	-4	-8	-6	3%	-0.5
COC(=O)CSc1nc2ccccn2c(=O)c1C=O	6	-1	x	2%	-20
Cc1cccc(C)c1NC(=S)N1CCCCCC1	x	3	x	x	0.9
O=C(Nc1ccc2c(c1)OCO2)c1cnc2n(c1=O)CCS2	-12	-9	-17	4%	4.2
CN1CCC(=O)N([C@H](COc2ccccc2)Cc2ccccc2)CC1	x	-5	x	x	0.3
Nc1ccc2oc(C3CCCCC3)nc2c1	-8	24	x	-4%	1.3
COc1ccc(-c2[nH]ncc2/C=N\NC(=O)c2ccc(Br)o2)cc1OC	x	-6	x	x	-1.0
C=CCn1c(SCC(=O)Nc2nc3ccccc3s2)nnc1-c1ccccc1O	47*	2	12	-1%	8.4
CCn1c(N)c(C(=O)NCc2ccc3c(c2)OCO3)sc1=S	-1	39	-28	10%	-1.6
OCCC1CN(Cc2cccn2-c2ccccn2)CCN1C1CCCC1 (centres undefined)	4	-7	x	0%	0.1
O=S1(=O)NC[C@]23C[C@H](c4ccc(F)cc4)[C@@H](C[C@@H]21)O3	x	-5	x	1%	-1.4
Cc1cc(C)c(NC(=S)NC(NC(=O)c2ccccc2)C(Cl)(Cl)Cl)c(C)c1 (centres undefined)	0	-1	-50	-2%	3.3
O=c1[nH]c(SCc2n[nH]c(=S)n2-c2ccccc2)nc2sc3c(c12)CCC3	12	-5	-29	-6%	-4.1
C(=C\n1nnc2ccccc21)/c1ccc[nH]1	x	-2	x	x	9.5
C=CCNC(=S)N/N=C/c1ccc(C(F)(F)F)cc1	-2	4	x	4%	-2.5
O=S(=O)(/N=C(/Nc1ccccc1F)c1ccccc1)c1ccccc1	2	-8	-9	-13%	0.2
O=C(COC(=O)c1cc([N+](=O)[O-])ccc1N1CCOCC1)NCc1ccc(Cl)cc1Cl	x	65	x	x	7.3
C=CCn1c(=O)c(C(C)=O)cn(N(C)c2ncc(C(F)(F)F)cc2Cl)c1=O	0	6	x	8%	-3.1
O=C(NCC1CCCO1)c1cccc(N2CCCC2=O)c1 (centres undefined)	12	-12	-15	-5%	3.7
CC(=O)C1=C(O)C(=O)N(CCC(=O)O)C1c1cccc(F)c1 (centres undefined)	4	-2	-52	-2%	0.6
O=C(c1cccs1)N1CCN(C2CCN(Cc3ccccc3)CC2)CC1	-5	-7	0	6%	-1.5
COc1ccccc1-n1cnc2sc(-c3ccccc3)cc2c1=O	10	3	-16	x	-1.7
O=C(NCCCn1ccnc1)C(=O)Nc1ccccc1	12	-5	x	-2%	-2.5
O=C(CCC(=O)NC12CC3CC(CC(C3)C1)C2)NC1CCCCC1	x	-1	x	x	-7.2
COc1ccccc1CN(C)C(=O)C(c1ccccc1)c1ccccc1	x	-1	x	x	11
O=C(Cc1ccc(F)cc1)N1CCOCC1	x	-1	x	x	-2.1
O=C(CNC(=O)c1cccc(Cl)c1)N/N=C/C=C/c1ccccc1	10	1	-25	2%	-0.9
Cc1ccc(NC(=O)c2cc3ccccc3oc2=N)cc1	x	3	x	x	0.2
c1ccc(Cn2nc(-c3ccccc3)nc2-c2ccccc2)cc1	16	2	-3	10%	8.7
CC(C)N1C/C(=C/c2cccnc2)C(=O)/C(=C/c2cccnc2)C1	1	x	-36	6%	x
CC(=O)Nc1ccc(S(=O)(=O)NC(C(=O)O)C(C)C)cc1 (centres undefined)	x	-13	-4	-5%	4.6
O=C(NCCCN1CCCC1=O)C1CCC(CNS(=O)(=O)c2ccc(Cl)cc2)CC1 (centres undefined)	x	-3	x	x	-0.4

Compound activity (PubChem BioAssay)
